Sfp inh = qHTS Assay for Inhibitors of Bacillus subtilis Sfp phosphopantetheinyl transferase (PPTase) | Biochemical Sfp PPTase activity, qHTS | Potency, µM, for inactives: max response, negative = inhibition, most hits filed as inhibitors | 310,000 tested, 3.5% active | AID 1490, 2009; active means well fitted inhibition curve with a large enough effect; inconclusive means small, poorly fitted or top-dose-only effect, or another doubt; inactive means no such curve, though single readings can be large or run the other way;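 further: the enzyme is Sfp with the accession as filed and its product quenches rhodamine fluorescence; potency means the concentration at half of the fitted maximal effect; 0% = enzyme reaction without inhibitor and -100% = no enzyme wells; top concentration of the series not given in the record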
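Buffer: 50 mM Hepes-Na pH 7.6, 10 mM MgCl2, 0.01% Nonidet P-40, 0.01% BSA. Enzyme 15 nM, pre-exposed to compound 15 min; substrates then added and fluorescence change tracked over 30 min.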
D2 potentiator = Beta-Arrestin HTS for Positive Allosteric Modulators of the Human D2 Dopamine Receptor: Potentiators | D(2) dopamine receptor (Homo sapiens), P14416 | 360,000 tested, 0.23% active | DiscoveRx D2 beta-arrestin cells, luminescence, 90 min; 100% = 57 uM dopamine signal | AID 624464, 2012 | potentiation, % (concentration not given with the values); active = potentiation of 50% or more; inconclusive = 30% to 50%; inactive = 30% or less;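 further: compound concentration not given in the record; tested on top of an EC20 dose of dopamine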
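D2 cells co-treated with compound plus 50 nM dopamine (EC20) for 90 min at 37 deg C to detect potentiation. Beta-arrestin recruitment was read as enzyme-fragment luminescence after 1 h at ambient temperature. Full response was set by 57 uM dopamine.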
D2 agonist = Beta-Arrestin HTS for Positive Allosteric Modulators of the Human D2 Dopamine Receptor: Agonists; D(2) dopamine receptor (Homo sapiens), P14416; DiscoveRx PathHunter D2 beta-arrestin, luminescence, 90 min; 100% = 57 uM dopamine signal; activation, % (concentration not given with the values); 360,000 tested, 0.084% active; in the data active = activation above about 40%; inconclusive = about 15% to 40%; inactive = below about 15%; further: compound concentration not given in the record; the text of the record calls up to 30% inactive
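Agonist mode: compounds alone added to overnight-plated D2 PathHunter cells for 90 min at 37 C, with 57 uM final dopamine (EC100) defining full response. Beta-arrestin recruitment detected by chemiluminescent reagent, read after 1 h at ambient temperature.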
TRPV1 potentiator = HTS Assay for Compounds that Act as Potentiators of the Vanilloid Receptor 1 | Transient receptor potential cation channel subfamily V member 1 (Homo sapiens), Q8NER1 | TRPV1-expressing cells, Fluo-8 calcium influx, capsaicin EC20 potentiation; host cell line not named in the record; control for the full effect not named in the record | potentiation, % at 8.33 µM | 320,000 tested, 0.02% active | AID 540277, 2011; active means potentiation above 80%; inconclusive means 30% to 80%; inactive means below 30%; further: 0% is about no effect
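Fluo-8 calcium influx in TRPV1-expressing cells, kinetic read (ex 480/em 520 nm). Compound added and read 3 min for agonist activity, followed by capsaicin at EC20 final and 2 min further read for enhancement.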
CtBP-E1A blk = qHTS Assay for Inhibitors of the CtBP/E1A Interaction; CtBP / adenovirus E1A interaction (AlphaScreen); AlphaScreen GST-E1A/His-CtBP binding, 1536-well; active compounds read low; control for the full effect not named in the record; activity change, % (concentration not given with the values); 340,000 tested, 0.49% active; in the data active means activity change below about -65%; inconclusive means about -30% to -65%; inactive means above about -30%; further: on the % scale 0 is the no-effect control and ±100 the full control effect
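Protein mix (5X: 125 nM each GST-E1A, His-CtBP) was incubated with pinned compound 2 h at 37 deg C in dark, in 50 mM Tris pH 8.0 buffer with 300 mM NaCl. Glutathione donor and nickel acceptor beads followed; AlphaScreen signal read after 1 h.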
Six1-Eya2 inh = qHTS Assay for Inhibitors of the Six1/Eya2 Interaction; 360,000 tested, 0.56% active; AID 651725, 2012; Homeobox protein SIX1 (Homo sapiens) + Protein phosphatase EYA2 (Homo sapiens), …; AlphaScreen GST-Six1/His-Eya2 binding, biochemical; active compounds read low; control for the full effect not named in the record; activity change, % (no concentration beside the values); in the data active = activity change below about -65%; inconclusive = about -30% to -65%; inactive = above about -30%; further: on the % scale 0 is the no-effect control and ±100 the full control effect
Target sequence (O00167 whole entry, looked up): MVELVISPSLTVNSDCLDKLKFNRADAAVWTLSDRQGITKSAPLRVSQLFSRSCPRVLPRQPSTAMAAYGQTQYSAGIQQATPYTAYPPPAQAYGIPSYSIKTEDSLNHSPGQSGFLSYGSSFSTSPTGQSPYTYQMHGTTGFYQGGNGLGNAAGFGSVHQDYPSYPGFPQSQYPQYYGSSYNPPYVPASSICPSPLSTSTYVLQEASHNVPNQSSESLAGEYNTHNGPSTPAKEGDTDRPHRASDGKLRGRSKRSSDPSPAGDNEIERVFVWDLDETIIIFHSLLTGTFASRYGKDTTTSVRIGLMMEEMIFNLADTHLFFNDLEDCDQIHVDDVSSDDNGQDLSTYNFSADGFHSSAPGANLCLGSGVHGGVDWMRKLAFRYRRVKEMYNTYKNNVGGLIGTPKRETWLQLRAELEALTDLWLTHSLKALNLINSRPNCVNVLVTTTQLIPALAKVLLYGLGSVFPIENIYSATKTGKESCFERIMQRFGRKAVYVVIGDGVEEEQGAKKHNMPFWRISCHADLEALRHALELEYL
Target sequence (Q15475 whole entry, looked up): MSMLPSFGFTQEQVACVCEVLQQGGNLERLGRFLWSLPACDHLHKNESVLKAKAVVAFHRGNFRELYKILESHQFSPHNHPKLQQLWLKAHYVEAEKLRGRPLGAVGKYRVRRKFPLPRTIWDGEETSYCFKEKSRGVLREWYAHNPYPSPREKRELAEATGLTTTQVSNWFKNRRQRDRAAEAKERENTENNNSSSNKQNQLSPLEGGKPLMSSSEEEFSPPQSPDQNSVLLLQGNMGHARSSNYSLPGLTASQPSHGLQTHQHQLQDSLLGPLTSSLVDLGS
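Homogeneous AlphaScreen proximity assay pairing GST-Six1 with His-tagged Eya2 (added as 5X mix: 250 nM and 500 nM) in 50 mM Tris pH 8.0, 300 mM NaCl, 1 mM TCEP. Glutathione donor and nickel acceptor beads; 1 h, 37 °C, dark.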
PINK1 modulator = A Quantitative High throughput Screen to Identify Chemical Modulators of PINK1 Expression | PINK1 immunofluorescence, high-content cytometry, 24 h | Potency, µM (doses to about 76.6 µM), for the others: at the highest dose activation (PINK1 increase), most hits filed as activators | 410,000 tested, 0.2% active | AID 624263, 2012; active = well fitted activation curve with a large enough effect; inconclusive = small, poorly fitted or top-dose-only effect; inactive = flat fitted curve, though single readings scatter; cell line not stated here;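 further: potency means the concentration at half of the fitted maximal effect; % of control where 0% means no effect; nearly all actives have a fitted effect of over 65% in size; a mitochondrial uncoupler was the plate control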
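A stable cell line was treated with compounds at 5 concentrations for 24 hours, with CCCP as control. PINK1 levels and mitochondrial localization were measured by immunofluorescence with mitochondrial, cell and nuclear markers after fixation, read by laser-scanning cytometry.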
The depositor's hits bear a star; ? = inconclusive; . = no result given; [ ] = another dose, or the depositor's remark.

A first look (4 entries):
Every second line gives: Sfp inh	D2 potentiator	D2 agonist	TRPV1 potentiator	CtBP-E1A blk	Six1-Eya2 inh	PINK1 modulator
> Cc1ccc(C)c(C(=O)OCC(=O)Nc2cccc(S(=O)(=O)NC3=NCCCCC3)c2)c1
  -1%	-6	-2.0	5	-3	-27	0.6%
> CCCc1nnc(SCc2ccc(OC)cc2)n1N
  13%	-10	-3.4	10	9	12	-1.6%
> O=C(Nc1ccc(C(=O)N2CCOCC2)cc1)c1cccs1
  -5%	-14	-2.6	4	0	31	-0.9%
> COc1cc(NC(=O)CCc2nnc3ccc(N4CCC(C)CC4)nn23)cc(OC)c1
  4%	3	-3.0	-5	-19	-3	0.4%

All compounds of this part, previewed entries included:
Every second line gives: Sfp inh	D2 potentiator	D2 agonist	TRPV1 potentiator	CtBP-E1A blk	Six1-Eya2 inh	PINK1 modulator
> Cc1ccc(C)c(C(=O)OCC(=O)Nc2cccc(S(=O)(=O)NC3=NCCCCC3)c2)c1
  -1%	-6	-2.0	5	-3	-27	0.6%
> CCCc1nnc(SCc2ccc(OC)cc2)n1N
  13%	-10	-3.4	10	9	12	-1.6%
> O=C(Nc1ccc(C(=O)N2CCOCC2)cc1)c1cccs1
  -5%	-14	-2.6	4	0	31	-0.9%
> COc1cc(NC(=O)CCc2nnc3ccc(N4CCC(C)CC4)nn23)cc(OC)c1
  4%	3	-3.0	-5	-19	-3	0.4%
> CCOC(=O)C1CCN(C(c2cc3cc(C)cc(C)c3[nH]c2=O)c2nnnn2C2CCCCC2)CC1 (stereo not given)
  .	-5	-1.1	.	5	7	?
> COCCNC(=O)C1CCN(Cc2cccc(OCc3ccccc3)c2)CC1
  -9%	-12	-4.1	8	-12	22	-1.4%
> c1ccc2c(c1)oc1c(NCCCN3CCOCC3)ncnc12
  10%	-11	0.2	-10	-1	5	0.5%
> COc1ccc(NC(=S)NNC(=O)CCn2cc([N+](=O)[O-])cn2)cc1
  14%	-7	-2.0	-16	-2	-1	0.3%
> O=C(/C=C/c1ccc2c(c1)OCO2)NCc1ccco1
  8%	-17	-0.8	-9	-15	-5	-0.8%
> COC(=O)Cn1cnc(=O)c(C#N)c1/C=C/N(C)C
  13%	-11	-2.5	7	0	6	-3.2%
> Cc1ccc(-n2ncc3c2CC(C)(C)CC3NC(=O)c2cc[n+]([O-])cc2)cc1 (stereo not given)
  9%	-9	-3.6	-11	-1	13	1.3%
> N#Cc1ccc(OC(=O)C2CCN(C3=NS(=O)(=O)c4ccccc43)CC2)cc1
  .	-4	0.8	4	9	?	1.9%
> O=C(Nc1cc(Cl)cc(Cl)c1)c1ccno1
  14%	-16	1.9	-10	6	5	1.3%
> COc1ccc(N2CC(C(=O)N3CCc4ccccc43)CC2=O)cc1 (stereo not given)
  .	-8	1.8	.	2	-1	0.5%
> Cc1ccn(CC(=O)N2CCCC(N3CCN(Cc4ccc5c(c4)OCO5)CC3)C2)n1 (stereo not given)
  13%	-24	-3.1	2	5	6	-1.3%
> O=C(CCCN1C(=O)/C(=C\c2ccco2)SC1=S)Nc1cccc2ccccc12
  56µM*	-5	1.0	20	10	2	13%
> CCOC(=O)[C@H]1O[C@@H]1C(=O)N[C@@H](CC(C)C)C(=O)NCCC(C)C
  10%	-11	-7.1	5	-9	5	0.8%
> CC(C)CN(C(=O)CCC(=O)OCc1ccc(Cl)cc1Cl)c1c(N)n(CC(C)C)c(=O)[nH]c1=O
  .	-7	-2.1	0	-3	-11	-0.1%
> CN(Cc1cnn(C)c1)C(=O)c1cc2ccccc2oc1=O
  12%	26	-1.7	-4	9	-1	-0.9%
> CCC1(c2ccc(F)cc2)NC(=O)N(CC(=O)NC2CCCC(C)C2C)C1=O (stereo not given)
  .	-12	-0.7	.	-23	7	-2.8%
> CN1CCN(C(=S)NCCc2ccccc2)CC1
  -22%	-9	-1.8	-31	9	2	1.7%[38.3 µM]
> COc1ccc(CNC(=O)C(C)N(C)Cc2cccc(F)c2)cc1 (stereo not given)
  15%	-2	-3.8	-7	.	24	-0.3%
> CC(=O)C1=C(O)C(=O)N(c2ccc(S(=O)(=O)Nc3nccs3)cc2)C1c1ccc([N+](=O)[O-])cc1 (stereo not given)
  7%	-7	-2.4	17	-3	-7	0.4%
> CCCCCCCCCCOC(=O)Cn1c(COc2ccc(C)cc2)[n+](C)c2ccccc21
  32µM*	-1	-3.7	?	-16	0	-1.3%
> COc1ccc(C2C(C(=O)NCCN(C)C)c3ccccc3C(=O)N2C)cc1OC (stereo not given)
  -7%	5	-1.0	-4	10	-1	-2.3%
> CCOc1ccc(N=C/C=C/c2ccccc2)c(O)c1
  50µM*	1	?	-9	.	-27	23%
> Cc1ccc(/C=N/n2c(-c3ccncc3)n[nH]c2=S)o1
  25µM*	-5	-1.6	-1	1	8	0.9%
> COc1ccc(-c2csc3ncnc(Nc4ccc(O)cc4)c23)cc1
  2%	0	-0.4	-11	-1	-3	6.2%
> C#CCOCCOCCOCCNc1nc(N2CCN(C(=O)Cn3cc(CCCN=C(N)N)nn3)CC2)nc(N2CCN(C(=O)[C@H](C)n3cc(CCCN=C(N)N)nn3)CC2)n1
  -5%	-4	-1.1	27	.	6	1.4%
> CC(OC(=O)[C@@H](NC(=O)c1ccco1)C(C)C)C(=O)Nc1ncc(Cl)cc1Cl (stereo not given in full)
  .	-11	-5.2	.	-1	-1	-0.6%
> COc1ccc(C(=O)C2CCCN(Cc3cn(C)nc3-c3ccccc3)C2)cc1F (stereo not given)
  13%	-13	-2.0	2	.	1	-0.9%
> Cc1cccc(CCNC(=O)C2CCCN(S(=O)(=O)c3cnc[nH]3)C2)c1 (stereo not given)
  7%	-5	-2.8	-7	1	1	4.5%
> CCOC(=O)CNC(=O)Cn1cnc2c(oc3ccccc32)c1=O
  10%	-2	-3.3	4	7	0	1.0%
> CCCn1c(SCC(=O)Nc2sc(C)c(C)c2C#N)nnc1C(C)C
  ?	19	-1.7	5	4	10	-4.3%
> Cc1ccc(OCCC(=O)OCC(=O)NC2CCS(=O)(=O)C2)cc1 (stereo not given)
  .	-7	-0.3	-1	3	9	0.9%
> NC1=NC2(CCCCC2)N(c2ccc(F)cc2)C(N)=N1
  23%	-12	0.0	-3	1	6	-1.4%
> CCOC(=O)Nc1cc2c(cc1[N+](=O)[O-])-c1ccccc1C2=O
  .	?	14	.	-2	1	-1.8%
> C=CCOc1ccc(C2NC(=O)c3ccccc3O2)cc1 (stereo not given)
  31%[activator]	-29	-2.9	?	-10	-2	-1.1%
> Cc1cc(F)c(F)c(C(=O)N2CCN(C)CC2)c1Cl
  12%	-23	-2.4	-7	-1	5	0.4%
> C=CCn1c(CNS(=O)(=O)c2ccc(Br)cc2)n[nH]c1=S
  5%	-14	1.1	-3	2	1	-0.7%
> Cc1ccc(OCC(=O)NNC(=O)c2ccc(F)c(S(=O)(=O)N3CCOCC3)c2)cc1C
  .	1	1.9	.	3	-2	1.4%
> C=CCN(c1ccccc1)S(=O)(=O)c1cccc(C(=O)NNC(=O)c2ccncc2)c1
  .	-4	0.0	-21	1	-6	4.2%
> CCOC(=O)c1cnc(COc2ccc(OC)cc2)[nH]c1=O
  8%	-4	1.0	11	9	-10	3.2%
> COc1cccc(CNC(=O)Cn2nc([N+](=O)[O-])c(Br)c2C)c1
  7%	-3	-4.5	?	-6	6	2.2%
> COc1ccc(CNC(=O)CCCn2nc(C)c([N+](=O)[O-])c2C)cc1
  -2%	-20	2.5	-2	-10	10	0.9%
> Cc1ccc(C(C(=O)Nc2ccc3c(c2)OCO3)N(C)C(=O)Cc2c[nH]c3ccccc23)cc1 (stereo not given)
  7%	-5	-5.9	-1	-2	-13	-2.8%
> CN1C(=O)NC(c2ccc([N+](=O)[O-])cc2)C2=C1CC(C)(C)CC2=O (stereo not given)
  6%	6	0.6	17	7	4	3.0%
> CCCc1cc(=O)[nH]c(SCc2nc3ccc([N+](=O)[O-])cc3[nH]2)n1
  1%	3	-5.0	2	-2	0	-1.4%
> Cc1nc(-c2ccc(NC(=O)C3CCCCC3)cc2)cs1
  10%	-12	-1.2	-13	0	-9	8.3%
> CCC(C(=O)O)N1C(=O)c2ccccc2C1=O (stereo not given)
  7%	1	0.1	-23	-2	4	.
> O=C1[C@H](Cc2ccccc2)NCCCC[C@H](c2ccc(Cl)cc2)N1Cc1ccccc1
  .	-11	-2.7	.	-1	-7	13%
> O=C(c1cccs1)N1CCN(S(=O)(=O)c2ccc(F)cc2)CC1
  5%	-6	-1.3	2	-4	6	-0.8%
> CCOc1ccc(C(c2c(O)nc(SC)n(C)c2=O)c2c(O)nc(SC)n(C)c2=O)cc1
  ?	-1	-1.0	21	5	-1	-0.5%
> CCC(C)C(NC(=O)c1ccccc1NC(=O)c1ccco1)C(=O)NNC(=O)c1ccncc1 (stereo not given)
  13%	-7	0.7	-4	-11	-9	0.6%
> Cc1ccc2nsnc2c1S(=O)(=O)NCc1cccnc1
  8%	5	1.6	-9	9	5	0.1%

Compound profiles, as listed above.
CCOc1ccc(C(c2c(O)nc(SC)n(C)c2=O)c2c(O)nc(SC)n(C)c2=O)cc1 is entered as Sfp inh = ?; D2 potentiator = -1; D2 agonist = -1.0; TRPV1 potentiator = 21; CtBP-E1A blk = 5; Six1-Eya2 inh = -1; PINK1 modulator = -0.5%
Cc1ccc(C(C(=O)Nc2ccc3c(c2)OCO3)N(C)C(=O)Cc2c[nH]c3ccccc23)cc1 (stereo not given) is entered as Sfp inh = 7%; D2 potentiator = -5; D2 agonist = -5.9; TRPV1 potentiator = -1; CtBP-E1A blk = -2; Six1-Eya2 inh = -13; PINK1 modulator = -2.8%

Screening results (PubChem BioAssay)

An unsorted share of the library, and some 3.7% of all compounds hit somewhere here.
